CtBP-E1A blk: inhibitors of CtBP/E1A interaction; AlphaScreen GST-E1A/His-CtBP binding, 1536-well; active compounds read low; control for the full effect not named in the record; activity change, % (no concentration beside the values); 0.49% of 340,000 active; in the data active means activity change below about -65%; inconclusive means about -30% to -65%; inactive means above about -30%; note: % is set by controls: 0 for no effect and ±100 for the full control effect
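In 5 uL wells, 23 nL compound meets equimolar GST-E1A and His-CtBP (5X stock 125 nM each) for 2 h, 37 °C. Beads (5X, 50 ug/mL) then 1 h, 37 °C, dark.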
D2 ag: human D2 receptor agonism in beta-arrestin assay. 0.084% of 360,000 active. P14416. activation, % (concentration not given with the values). DiscoveRx PathHunter D2 beta-arrestin, luminescence, 90 min; 100% = 57 uM dopamine signal; in the data active = activation above about 40%; inconclusive = about 15% to 40%; inactive = below about 15%; note: compound concentration not given in the record; the text of the record calls up to 30% inactive
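DiscoveRx PathHunter D2 beta-arrestin cells (2,100/well) attached overnight, then compound-stimulated 90 min at 37 C in HBSS/10 mM HEPES/0.1% Tween-20 buffer; beta-galactosidase complementation read by luminescence after 1 h at ambient temperature. Dopamine 57 uM final (EC100) as control.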
D2 PAM: potentiates the human D2 dopamine receptor allosterically; DiscoveRx D2 beta-arrestin cells, luminescence, 90 min; 100% = 57 uM dopamine signal; potentiation, % (no concentration beside the values); P14416; 0.23% of 360,000 active; AID 624464; active = potentiation of 50% or more; inconclusive = 30% to 50%; inactive = 30% or less;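 note: compound concentration not given in the record; tested on top of an EC20 dose of dopamine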
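PathHunter beta-arrestin assay in DiscoveRx D2 cells. Compounds were added with an EC20 of dopamine (50 nM final) for 90 min at 37 deg C. Luminescence was read 1 h after detection reagent, with 57 uM dopamine as the EC100 control.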
Sfp PPTase inh: Sfp phosphopantetheinyl transferase inhibition. Biochemical Sfp PPTase activity, qHTS. Potency, µM, for inactives: max response, negative = inhibition, hits mostly inhibitors. 3.5% of 310,000 active. Q9F4F7. AID 1490; active = well fitted inhibition curve with a large enough effect; inconclusive = small, poorly fitted or top-dose-only effect, or another doubt; inactive = no such curve, though single readings can be large or run the other way;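 note: the enzyme is Sfp with the accession as filed and its product quenches rhodamine fluorescence; potency is the fitted concentration of half-maximal effect; 0% = enzyme reaction without inhibitor and -100% = no enzyme wells; top concentration of the series not given in the record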
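With Hepes-Na pH 7.6 buffer containing 10 mM MgCl2, Sfp (15 nM) modified BHQ-2-YbbR (12.5 uM) using rhodamine-CoA (5 uM). Two reads 30 minutes apart at 525/598 nm yielded each well's rate.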
TRPV1 potentiator: human TRPV1 potentiation | Q8NER1 | potentiation, % at 8.33 µM | TRPV1-expressing cells, Fluo-8 calcium influx, capsaicin EC20 potentiation; host cell line not named in the record; control for the full effect not named in the record | 0.02% of 320,000 active; active means potentiation above 80%; inconclusive means 30% to 80%; inactive means below 30%; note: 0% is about no effect
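Cells expressing TRPV1 were dye-loaded with Fluo-8 and read kinetically: 10 s baseline, 3 min after compound (agonist portion), then 2 min after EC20 capsaicin (allosteric enhancer portion). Calcium-bound dye fluorescence at 480/520 nm.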
Six1-Eya2 blk: blocks human Six1 binding to Eya2 | AID 651725 | 0.56% of 360,000 active | activity change, % (test concentration not listed) | AlphaScreen GST-Six1/His-Eya2 binding, biochemical; active compounds read low; control for the full effect not named in the record | Q15475+O00167; in the data active = activity change below about -65%; inconclusive = about -30% to -65%; inactive = above about -30%; note: % is set by controls: 0 for no effect and ±100 for the full control effect
Target sequence (O00167 whole entry, looked up): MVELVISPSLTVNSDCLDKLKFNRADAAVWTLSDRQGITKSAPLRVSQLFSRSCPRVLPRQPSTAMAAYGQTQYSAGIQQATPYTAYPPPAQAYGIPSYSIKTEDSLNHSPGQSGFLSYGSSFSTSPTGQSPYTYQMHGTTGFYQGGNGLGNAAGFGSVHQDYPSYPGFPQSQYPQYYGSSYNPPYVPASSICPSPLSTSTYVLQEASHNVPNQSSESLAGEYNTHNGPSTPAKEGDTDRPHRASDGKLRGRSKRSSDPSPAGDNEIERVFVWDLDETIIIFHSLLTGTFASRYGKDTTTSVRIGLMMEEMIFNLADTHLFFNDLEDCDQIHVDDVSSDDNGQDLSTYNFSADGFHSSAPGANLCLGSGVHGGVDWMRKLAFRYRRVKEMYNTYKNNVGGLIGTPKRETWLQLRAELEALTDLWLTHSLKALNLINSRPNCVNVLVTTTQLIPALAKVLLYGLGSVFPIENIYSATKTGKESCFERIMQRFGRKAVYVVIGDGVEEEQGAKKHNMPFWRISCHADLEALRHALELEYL
Target sequence (Q15475 whole entry, looked up): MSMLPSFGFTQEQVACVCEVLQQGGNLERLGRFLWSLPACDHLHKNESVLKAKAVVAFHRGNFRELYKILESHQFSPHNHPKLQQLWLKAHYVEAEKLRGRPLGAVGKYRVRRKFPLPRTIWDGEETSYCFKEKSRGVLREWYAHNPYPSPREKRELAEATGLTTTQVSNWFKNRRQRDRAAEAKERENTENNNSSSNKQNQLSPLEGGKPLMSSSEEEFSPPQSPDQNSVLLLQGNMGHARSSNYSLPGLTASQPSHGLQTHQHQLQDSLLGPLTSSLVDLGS
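Compounds are tested against tagged Six1 and Eya2 proteins bridged by glutathione donor and nickel acceptor beads; after a one-hour incubation at 37 °C without light, AlphaScreen emission is recorded.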
PINK1 modulator: modulators of PINK1 expression. PINK1 immunofluorescence, high-content cytometry, 24 h. Potency, µM (series often up to 76.6 µM), inactives show at the highest dose activation (PINK1 increase), most hits filed as activators. 0.2% of 410,000 active; active = well fitted activation curve with a large enough effect; inconclusive = small, poorly fitted or top-dose-only effect; inactive = flat fitted curve, though single readings scatter; cell line not stated here;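 note: potency is the fitted concentration of half-maximal effect; % of control where 0% means no effect; nearly all actives have a fitted effect of over 65% in size; a mitochondrial uncoupler was the plate control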
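PINK1 protein level read as immunofluorescence by microplate cytometer in a fixed, stained stable cell line after 24 h exposure to five compound concentrations, with CCCP as control.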
An asterisk follows results filed as active; ? = inconclusive; . = not tested or not shown; [ ] = another dose, or the depositor's remark.

SMILES	CtBP-E1A blk	D2 ag	D2 PAM	Sfp PPTase inh	TRPV1 potentiator	Six1-Eya2 blk	PINK1 modulator
COc1cc(NC(=O)CN2CCCCC2)c(C)cc1[N+](=O)[O-]	4	-1.7	-12	1%	-4	2	-0.2%
CC(=O)C1=C(C)OC(N)=C(C#N)C1c1cc([N+](=O)[O-])ccc1Cl (stereo not given)	16	-0.7	-3	-4%	.	18	0.2%
CC(=O)O/N=C(\N)c1cnn2c(C(F)(F)F)cc(C(F)(F)F)nc12	-18	-5.2	-10	7%	-6	-7	-0.1%
COc1ccc(Cl)cc1C(=O)OCC(=O)NCc1cccs1	3	1.0	2	.	-2	28	-0.1%
CN(C(=O)c1ccc([N+](=O)[O-])cc1)c1ccccc1C(=O)NCc1ccccc1	0	-2.1	-10	17%	-5	27	-1.2%
Cc1[nH]c2ccccc2c1C(Nc1nccs1)c1ccncc1 (stereo not given)	9	2.0	6	12%	0	0	0.5%
O=S(=O)(Nc1cc(C(F)(F)F)ccc1N1CCOCC1)c1ccccc1	.	0.1	0	26%	1	2	2.5%
N/C(=N\OCc1ccc([N+](=O)[O-])cc1)c1ccncc1	-4	-7.0	-3	24%	-23	2	0.7%
O=C1CCC(=O)N1CCSC(=S)N1CCSCC1	4	-10	0	9%	-1	-3	-0.2%
CC(=O)Nc1ccc(N2CCCC2)cc1	-12	1.0	-10	40µM*	-2	-17	-1.1%
Cc1c(NC(=O)CN2c3ccccc3CC2C)c(=O)n(-c2ccccc2)n1C (stereo not given)	7	-1.7	-8	15%	12	0	-0.4%
C/C(Cn1cnc([N+](=O)[O-])n1)=N\NC(=O)c1ccncc1	-1	2.1	1	-23%	-8	7	2.5%

Given bar-delimited: part of the list above.
compound | CtBP-E1A blk | D2 ag | D2 PAM | Sfp PPTase inh | TRPV1 potentiator | Six1-Eya2 blk | PINK1 modulator
CC(=O)O/N=C(\N)c1cnn2c(C(F)(F)F)cc(C(F)(F)F)nc12 | -18 | -5.2 | -10 | 7% | -6 | -7 | -0.1%
CC(=O)Nc1ccc(N2CCCC2)cc1 | -12 | 1.0 | -10 | 40µM* | -2 | -17 | -1.1%

Remaining list, next part
SMILES	CtBP-E1A blk	D2 ag	D2 PAM	Sfp PPTase inh	TRPV1 potentiator	Six1-Eya2 blk	PINK1 modulator
COc1cc(OC)c(NC(=O)/C=C/C(=O)O)cc1Cl	-4	2.1	2	-24%	9	3	-1.3%
COc1cccc(C(=O)Nc2nc(-c3ccc(S(=O)(=O)N4CCOCC4)cc3)cs2)c1	-28	2.0	10	-5%	-8	?	-1.6%
c1ccc(-c2cc(-c3ccccc3)ncn2)cc1	6	5.1	-7	.	.	23	4.3%
COc1ccc(C(=O)NCCn2ccc3ccccc32)cc1	6	0.6	-21	7%	-13	3	1.6%
Cc1ccc(NC(=O)c2ccc(NC(=O)c3ccccc3)cc2)cc1C	-1	2.4	-24	-21%	-13	0	?
Cc1ccc(/C=N/NC(=O)CSc2ccccn2)o1	1	-1.5	1	-23%	.	7	0.6%
CCOC(=O)N1CCN(S(=O)(=O)c2ccc(C(=O)N(CCCN(C)C)c3nc4cc(OC)ccc4s3)cc2)CC1	-9	-2.5	-22	.	2	-18	1.9%
C=CCSc1nnc(NC(=O)CSc2ccccn2)s1	3	-2.3	-12	9%	-3	16	3.4%
CCCCN(CCCC)C(=O)C[n+]1cccc(/C=N/O)c1	.	-0.6	-5	22%	28	6	-0.6%
O=C(NCC(=O)N(Cc1ccco1)C(C(=O)NC1CCCCC1)c1ccncc1)c1cccs1 (stereo not given)	2	-4.5	-4	3%	7	-5	27%
COc1cc(C(=O)N2CCC(NC(=O)C(Cc3ccccc3)NC(C)=O)CC2)cc(OC)c1OC (stereo not given)	6	-2.1	0	19%	2	2	15%[38.3 µM]
Cc1ccc2nc(NC(=O)c3ccc(OCC4CCCO4)cc3)sc2c1 (stereo not given)	-2	15	4	-1%	-12	-1	0.6%
OCCC1CN(Cc2ccon2)CCN1Cc1ccccc1 (stereo not given)	12	-6.7	-9	-2%	9	0	-1.3%
CCOC(=O)c1cc2occc2n1CC(=O)NC1CCCCC1C (stereo not given)	6	-1.5	-9	0%	7	0	-1.3%[38.3 µM]
CCn1c2ccccc2c2cc(CN3CCN(C(=O)c4ccco4)CC3)ccc21	-21	-0.6	-28	56µM*	3	-23	2.2%
O=C(CCC(=O)c1ccc(F)cc1)NCC1(N2CCCCC2)CCCCC1	-10	-0.7	-17	.	?	7	-0.1%
COc1ccccc1C(=O)COC(=O)c1cccc(-n2cnnn2)c1	.	-1.5	7	.	2	1	-0.5%
O=C(Nc1ccccc1)c1sc(N2CCOCC2)nc1-c1ccccc1	2	3.0	-12	0%	-18	1	-2.4%
Brc1ccc2ncnc(Nc3cccc4ccccc34)c2c1	2	4.9	16	-3%	-22	-2	-2.5%[38.3 µM]
O=C(Oc1ccc(C(=S)N2CCOCC2)cc1Br)c1cc(Cl)ccc1Cl	31	-9.6	-29	6%	-7	-9	12%[38.3 µM]
CCN1C(=O)[C@@H]2[C@@H](c3ccc(-c4ccc(OC)cc4)c(OC)c3)N3CCCC[C@@]3(C(=O)OC)[C@@H]2C1=O	-8	-2.7	-7	.	-20	-5	0.5%
Cc1ccc(NC(=O)c2ccc(OC(F)F)cc2)cc1S(=O)(=O)N(C)C	-4	-2.1	-28	4%	-11	-10	5.9%
Cc1ccc(C2(C)NC(=O)N(CC(=O)Nc3cc(S(=O)(=O)N4CCOCC4)ccc3OC(C)C)C2=O)cc1 (stereo not given)	.	3.6	3	.	.	-1	2.3%
CC(c1ccc(F)cc1)n1c(-c2ccc3ccccc3n2)n[nH]c1=S (stereo not given)	-7	0.9	-2	?	-3	-3	.
OC(COC(c1ccc(F)cc1)c1ccc(F)cc1)CN1CCCC(C(F)(F)F)C1 (stereo not given)	0	-3.1	-18	-24%	0	6	?
Cc1ccc(NCC(=O)N/N=C/c2cc(O)ccc2[N+](=O)[O-])cc1	3	-0.8	3	17%	24	-19	-2.7%
CCN(CC)c1ccc(/C=N/NC(=O)c2c(Cl)c(C)nn2C)cc1	3	2.8	0	1%	-24	-1	10%
CC1(C)N(OCc2ccccc2)C(=O)C(=O)N(OCc2ccccc2)C1(C)C	2	-0.9	-3	12%	-3	4	-1.2%[38.3 µM]
Cn1cc(C(=O)c2ccc(Cl)cc2Cl)cc1C(=O)NN	3	1.7	2	10%	11	-6	2.3%
C#CCCc1cscc1/C=[N+](\[O-])c1ccc(C(=O)OCC)cc1	0	0.5	-1	.	4	-5	2.6%
CS(=O)(=O)c1ccc(NC(=O)c2ccccc2-n2cnnn2)cc1	5	8.5	1	.	6	1	1.5%
CC1CCCN(c2nc3ccccc3nc2C(C#N)S(=O)(=O)c2cccs2)C1 (stereo not given)	7	0.2	-1	-6%	13	-2	6.1%[38.3 µM]
CCOC(=O)CCc1c(C)nc2cc(-c3ccc(Cl)cc3)[nH]n2c1=O	22	-1.8	-25	-2%	?	9	7.3%
O=C(Cn1cnc([N+](=O)[O-])n1)NCCO	7	-0.4	2	21%	-1	0	-0.6%
O=C(C[C@H]1C(=O)N(C2CCCCC2)C[C@@H]1c1ccccc1)Nc1ccc(Br)cc1	1	3.3	.	.	.	0	0.8%
COc1ccc(-c2cc(C)nc(SCC(=O)c3cccc([N+](=O)[O-])c3)n2)cc1	-2	0.5	18	6%	8	0	6.9%[38.3 µM]
O=C(NNC(=O)c1cccc2ccccc12)c1ccc(F)cc1	0	3.5	-29	.	.	0	0.5%
Cc1ccc(S(=O)(=O)N2CCN(C)CC2)cc1-c1nnc2c3ccccc3c(C)nn12	-6	-1.3	-10	9%	27	-24	-0.5%
COc1ccc(NC(=O)c2cccnc2Cl)c(S(=O)(=O)N2CCOCC2)c1	-1	-0.5	2	9%	1	2	-2.2%
COc1ccc(CN2CCN(C(=O)CCC(=O)Nc3nnc(C(C)C)s3)CC2)cc1F	-10	-5.0	-7	18%	-5	-1	-1.1%
COc1ccc(/C(C)=N/NC(=O)CNC(=O)/C=C/c2ccccc2OC)cc1	-2	-4.6	-8	-1%	14	3	-1.8%
COc1ccc(-c2nnc3ccc(SCC(=O)N4CCN(c5ccccc5)CC4)nn23)cc1	9	-2.0	3	.	.	0	4.9%
Cc1ccc2nc(-c3ccccn3)cc(C(=O)NCCc3ccc(F)cc3)c2c1	1	-9.8	-12	-2%	-7	-1	10%
Cc1cc(C(=O)NNC(=S)NCc2ccccc2)no1	-9	5.5	-12	16%	0	-16	-0.8%
CN(C)S(=O)(=O)c1cccc(NC(=O)COC(=O)C2CCN(C(=O)c3ccc(F)cc3)CC2)c1	0	-3.4	-7	.	1	-4	1.3%
C=CCNC(=O)c1ccc(OC2CCN(S(=O)(=O)N(C)C)CC2)cc1	0	-1.4	21	8%	-18	-1	0.7%
COc1ccc(Nc2nc(OC)nc(N3CCOCC3)n2)cc1	9	1.3	3	8%	-14	2	0.9%
CN(C(=O)c1cccc(NC(=O)Cc2cccc(NC(=O)C3CCN(C(=O)C4CCCC4)CC3)c2)c1)C1CCC1	-2	-0.6	2	.	.	-1	0.4%
CCC(CC)C(=O)N(C)c1c(C)nc2c(OCC3CCCCC3)cccn12	2	-4.2	-13	.	.	0	0.6%
NS(=O)(=O)c1ccc(NC(=O)COC(=O)c2cccc(S(=O)(=O)N3CCCC3)c2)cc1	5	0.2	4	20%	-12	6	-0.6%
CCCSc1cc(=O)n(-c2ccc(F)cc2)nc1C(=O)OCC	0	-2.2	-7	9%	-20	-2	-0.3%
Cc1ccc(NC(=O)C2CCN(C(=O)c3ccc(F)cc3)CC2)nc1	7	-3.8	-68	.	14	-5	-2.3%
O=C(CC1Oc2ccc(Cl)cc2NC1=O)NC1CCCCCC1 (stereo not given)	1	1.8	2	-8%	-3	4	2.9%
COC(=O)C1=CO[C@@H](OC2OC(CO)C(O)C(O)C2O)[C@@H]2C(CO)=CC[C@H]12 (stereo not given in full)	6	-2.9	7	9%	0	1	-1.0%
Cc1nnc(SCC(=O)c2c[nH]c3ccccc23)n1C1CC1	-2	-1.9	4	.	-15	4	-0.8%
COc1ccc(/C=N/OC(=O)c2ccc(Cl)cc2)c(Cl)c1OC	0	-1.6	-2	8%	-22	0	5.0%
Cc1nnc(NC(=O)CCn2cnc3ccccc3c2=O)s1	-1	-5.5	-3	30%	15	-5	-1.3%
Nc1ccccc1Sc1c[nH]c2ccccc12	.	2.1	-5	12%	-19	-9	1.0%

Screening data (PubChem)
